VACV mCherry inh – vaccinia inhibition (mCherry reporter). Vaccinia virus mCherry reporter infection, fluorescence; about a quarter of the inactives have no number. Potency, µM (titrated, usually from 36.5 µM), without a hit: at the highest dose activity change, negative = inhibition, actives largely listed as inhibitors. 310,000 tested, 0.63% active; active = well fitted inhibition curve with a large enough effect; inconclusive = small, poorly fitted or top-dose-only effect; inactive = no such curve, though single readings can be large or run the other way; tested in A549 cells; further: nearly all actives have a fitted effect of over 35% in size; inactives centre near -10
Vaccinia Venus – vaccinia inhibition (Venus reporter) | Potency, µM (top dose mostly 36.5 µM), inactives show top-dose activity change, negative = inhibition, most hits filed as inhibitors | Vaccinia virus Venus reporter expression, fluorescence | 330,000 tested, 0.46% active; active means well fitted inhibition curve with a large enough effect; inconclusive means small, poorly fitted or top-dose-only effect; inactive means no such curve, though single readings can be large or run the other way; tested in A549 cells; further: nearly all actives have a fitted effect of over 30% in size; inactives centre near -10
Numbers without * were called inactive; i = inactive; ? = inconclusive; nt = no result given; [ ] = dose if it differs, or a comment. On the % scale 0 is the no-effect control and ±100 the full control effect; potency means the concentration at half of the fitted maximal effect.

Value order – VACV mCherry inh	Vaccinia Venus
COC(=O)C1CN(C(=O)COc2ccc(Cl)c(C)c2)c2ccccc2O1 (configuration not stated)
→ -1%	-17%
COc1ccc(CN2C[C@@H](CO)O[C@@H](n3cnc4c(NCCN(C)C)ncnc43)C2)cc1
→ 5%	-8%
COc1ccccc1-c1noc(-c2ccc(N3CCC(C)CC3)c([N+](=O)[O-])c2)n1
→ -8%	-6%
COc1ccc(C2=C(C=Nc3c(C)n(C)n(-c4ccccc4)c3=O)C(c3ccccc3C)c3ccccc3O2)cc1OC (configuration not stated)
→ -27%	-22%
COc1cccc(CNC(=O)C(=O)NCC(c2ccc3c(c2)OCO3)N2CCOCC2)c1 (configuration not stated)
→ -14%	-14%
Cc1ccc(S(=O)(=O)n2nc(-c3ccc(Cl)cc3)nc2NCc2ccc(F)cc2)cc1
→ -6%	8%
O=C(CNc1cccc2ccccc12)N/N=C/c1ccc(C(=O)O)cc1
→ -12%	-7%
Cn1nnnc1SCC(=O)N1CCN(C(=O)c2ccco2)CC1
→ i	-10%
COc1ccccc1-c1nnc(SCC(=O)Nc2oc(C)c3c(C)n[nH]c(=O)c23)n1C
→ i	-12%
Cc1ccc(-c2nc(CN(C)C(C3CC3)C3CC3)c(C)o2)cc1
→ -21%	-10%
CC(C)C[C@H]1COc2cc(Br)ccc2S(=O)(=O)N1
→ -3%	-16%
CC1Oc2ccccc2N(CC(=O)Nc2ccccc2F)C1=O (configuration not stated)
→ -10%	-5%
Cc1cc(C)n(-c2nc3nonc3nc2-n2nc(C)cc2C)n1
→ nt	36%[activator]
CCC(=O)Nc1ccc(-c2csc(C)n2)cc1
→ i	-12%
CC12CCC(=O)N1C(C(=O)NCCN1C(=O)S/C(=C\c3ccc(F)cc3)C1=O)CS2 (configuration not stated)
→ ?	-21%

One compound at a time, from the list above. Screens in order: VACV mCherry inh, Vaccinia Venus
Entry for Cc1cc(C)n(-c2nc3nonc3nc2-n2nc(C)cc2C)n1 = nt, 36%[activator]
Entry for CCC(=O)Nc1ccc(-c2csc(C)n2)cc1 = i, -12%

Carrying on.
Value order – VACV mCherry inh	Vaccinia Venus
COc1ccc(OC(=O)N(C)C[C@@H]2OCc3cnnn3CCCC(=O)N([C@@H](C)CO)C[C@@H]2C)cc1
→ i	-2%
CONC(=O)C1CCN(C(=O)OCc2ccccc2)CC1
→ nt	-9%
Cc1ccc(-n2c(CCC(=O)O)ccc2-c2cccs2)cc1Cl
→ -7%	-10%
CCOC(=O)C(Cc1ccc(O)c([N+](=O)[O-])c1)N1C(=O)c2ccccc2C1=O (configuration not stated)
→ i	-7%
CCOC(=O)c1c(C)[nH]c(C)c1S(=O)(=O)N(C)CC(=O)Nc1cccc(Cl)c1C
→ -24%	-19%
N#CC(=C(O)CN1CCN(c2ccccc2F)CC1)c1nc(-c2ccc(Cl)cc2)cs1
→ ?	-26%
CCCOc1ccc(CNC(=O)c2[nH]c3cc(OC)ccc3c2Sc2ccccc2)cc1
→ i	-8%
CNC(=O)c1c(NC(NC(=O)c2ccco2)C(=O)c2ccc(Cl)cc2)sc2c1CCCC2 (configuration not stated)
→ -7%	11%
CC(=O)c1cc(Cl)ccc1OCC(=O)NC1CCCC1
→ 1%	3%
C=CC[C@H](CC(=O)N(CCO)Cc1ccccc1)C(=O)N[C@H](COC(=O)[C@@H](CC=C)CC(=O)OC(C)(C)C)Cc1ccccc1
→ -1%	?
Cc1ccc(C(=O)N2CCN(c3ccc([N+](=O)[O-])c(NCc4cccnc4)c3)CC2)cc1
→ -27%	?
COc1ccc(N(CC(=O)NCc2ccccc2OC)S(=O)(=O)c2c(C)nn(C)c2C)cc1
→ 17%	-2%
Brc1ccc(CN2CCNCC2)s1
→ nt	-18%
COc1ccc(C(=O)N2CCN(c3ccc(C(C)=O)cc3F)CC2)cc1S(=O)(=O)NC1CC1
→ i	-9%
COc1ccccc1CNC(=O)C(=O)NCC(c1cccs1)S(=O)(=O)c1cccs1 (configuration not stated)
→ -17%	-8%

Six records picked at random from the list so far, as already listed:
Value order – VACV mCherry inh	Vaccinia Venus
CNC(=O)c1c(NC(NC(=O)c2ccco2)C(=O)c2ccc(Cl)cc2)sc2c1CCCC2 (configuration not stated)
→ -7%	11%
COc1ccc(OC(=O)N(C)C[C@@H]2OCc3cnnn3CCCC(=O)N([C@@H](C)CO)C[C@@H]2C)cc1
→ i	-2%
CCOC(=O)c1c(C)[nH]c(C)c1S(=O)(=O)N(C)CC(=O)Nc1cccc(Cl)c1C
→ -24%	-19%
CC(=O)c1cc(Cl)ccc1OCC(=O)NC1CCCC1
→ 1%	3%
N#CC(=C(O)CN1CCN(c2ccccc2F)CC1)c1nc(-c2ccc(Cl)cc2)cs1
→ ?	-26%
Brc1ccc(CN2CCNCC2)s1
→ nt	-18%

Remaining list, next part:
Value order – VACV mCherry inh	Vaccinia Venus
Cc1cc(=O)n2nc(N3CCC(C(=O)N4CCN(C)CC4)CC3)sc2n1
→ nt	-5%
O=C(Cn1nnc(-c2ccccc2Cl)n1)NCc1ccc2c(c1)OCO2
→ nt	-5%
COc1ccc(-c2cc(C(=O)NC3CCCCC3)no2)cc1OC
→ -9%	-1%
O=C(CC12CC3CC(CC(C3)C1)C2)NC1CC1
→ -12%	-3%
CCN(CC(=O)Nc1ccccc1C(F)(F)F)C(=O)c1cc(S(=O)(=O)N2CCCCCC2)ccc1OC
→ -2%	-14%
COC(=O)c1ccc2nc(-c3cccc(Br)c3)c(CC3CCCCC3)n2c1
→ 6%	13%
CCN(C(=O)c1cc2cc(OC)ccc2oc1=O)c1ccccc1
→ -17%	-12%
COc1ccccc1N1CCN(C(=O)Cn2c(=O)nc(-c3ccccc3)c3cc(Cl)ccc32)CC1
→ i	-14%
CCC(C(=O)Nc1ccc2[nH]ncc2c1)c1ccccc1 (configuration not stated)
→ -3%	-17%
COc1ccc(N(C)S(=O)(=O)c2cccc(C(=O)NC3CCC(C)CC3)c2)cc1 (configuration not stated)
→ i	-22%
Oc1ccccc1-c1cc(-c2ccccc2)n[nH]1
→ ?	?
Brc1ccccc1C1Nc2cccc3cccc(c23)N1
→ -32%	-11%
O=C(Cn1cc[n+](Cc2ccccc2)c1)c1ccc([N+](=O)[O-])cc1
→ ?	-14%
COc1ccc(OC)c(NC(=O)CSc2nnc(-c3cnccn3)n2C)c1
→ -3%	1%
O=C(Nc1ccc(S(=O)(=O)Nc2cnc3ccccc3n2)cc1)c1cc(F)c(F)cc1Cl
→ -22%	-14%
Cc1cccc(CN2CCC(CNC(=O)c3c(C)oc4ncnc(N5CCCCC5)c34)CC2)c1
→ -12%	-7%
COCCNC(=O)CC(c1ccccc1)c1ccccc1
→ nt	-4%
Cn1c(C(=O)OC(C(=O)NC2CCCC2)c2cccnc2)cc2sccc21 (configuration not stated)
→ -2%	-15%
C[N+](C)(C)CC1CCCC(C[N+](C)(C)C)C1=O (configuration not stated)
→ -12%	-2%
Cc1sc(=NC(=O)c2ccco2)n(C)c1-c1ccc(F)cc1
→ -21%[1.46 µM]	-29%
COc1ccc(S(=O)(=O)Nc2ccccc2C(=O)NC(C)C)cc1OC
→ nt	-8%
COc1ccc(N2CCN(c3ccc(NC(=O)C4CCCCC4)cc3C#N)CC2)cc1
→ nt	-13%
COc1ccc(NS(=O)(=O)c2cccc(C(=O)N3CCCC3)c2)cc1
→ -10%	-13%
COc1ccc(C(=O)/C=C/c2cn(CC(O)CN3CCc4ccccc43)c3ccccc23)cc1 (configuration not stated)
→ -9%	2%
COc1ccc(S(=O)(=O)N2CCOC2CNC(=O)C(=O)NCCCn2ccnc2)cc1OC (configuration not stated)
→ i	-11%
CCS(=O)(=O)N1CCCC(C(=O)NCCc2ccccc2)C1 (configuration not stated)
→ -23%	-12%
Cc1cc(C)cc(NC(=O)CCCSc2nc3ccccc3[nH]2)c1
→ -13%	-24%
CC(C)Cc1nnc(NC(=O)c2cc([N+](=O)[O-])ccc2N2CCOCC2)s1
→ i	-12%
Nc1ccc2c(c1)C(=O)CCC2
→ i	-3%
COc1ccc(-c2onc(C)c2C)cc1S(=O)(=O)N(C)Cc1ccco1
→ -17%	-13%
COc1ccc2c(c1)cc1c(=O)n(CC(=O)NCCCc3ccccc3)nc(C)n12
→ -2%	-10%
Nc1c(CNCc2nnn(Cc3ccccc3)c2N)nnn1Cc1ccccc1
→ i	-12%
CCCNC(=O)C(Cc1ccc(C(F)(F)F)cc1)NC(=O)c1ccc(C#N)cc1 (configuration not stated)
→ -26%	-9%
COC(=O)CC(c1ccc(F)cc1)n1c(C)ccc1C (configuration not stated)
→ -4%	-14%
Cc1nc(-c2cccc(NC(=O)c3cc4cc(Br)ccc4oc3=O)c2)cs1
→ nt	3%
CCC1(C)Cc2ccccc2-c2nc(NCCCO)[nH]c(=O)c21 (configuration not stated)
→ i	-9%
O=C(O)CCCCCNS(=O)(=O)/C=C/c1ccccc1
→ 10%	5%
N#C/C(=C\c1ccc(-c2ccc(F)cc2F)o1)c1nc2ccccc2[nH]1
→ ?	154%[activator]
Clc1ccc(N/N=C/c2cccnc2)cc1
→ -20%	-14%
COc1ccc(OC)c(/C=C/c2cc3ccccc3cn2)c1
→ ?	-41%
CC(Sc1ccc(S(=O)(=O)N2CCCC2)cn1)C(N)=O (configuration not stated)
→ -16%	-14%
COc1ccc2[nH]cc(C3=CCNCC3)c2c1
→ -15%	-16%
CC(C)c1ccc(N(CC(=O)NCc2ccco2)C(=O)CCC(=O)Nc2nccs2)cc1
→ -14%	-12%
CCOC(=O)Cc1csc(NC(=O)CN2CCOCC2)n1
→ -14%	-20%
CCOC(=O)C1(CCCc2ccccc2)CCN(Cc2nccn2CC)CC1
→ -2%	-2%
O=C(C1CCN(S(=O)(=O)c2cc(Cl)ccc2Cl)CC1)N1CCOCC1
→ 1%	6%
CCN(CC)CC#CCOC(c1ccccc1)c1ccccc1
→ -19%	-16%
Cc1cc(NC(=O)CCC(=O)N(CC(=O)NC2CCCC2)Cc2cccs2)no1
→ i	-12%
CCOC(=O)C(C)Oc1cccc2c(=O)n(CC(=O)N3CCN(C(=O)OCC)CC3)ccc12 (configuration not stated)
→ -1%	-10%
COc1ccc(CCNC(=O)CSCc2c(F)cccc2Cl)cc1OC
→ i	-19%
CC(C(=O)NCCC1=CCCCC1)c1ccc([N+](=O)[O-])cc1 (configuration not stated)
→ -4%	-12%
CCOc1ccc(CNC(=O)C(C)n2ncn3cccc3c2=O)cc1 (configuration not stated)
→ -6%	4%
Cc1c(Nc2ccc3nonc3c2[N+](=O)[O-])c(=O)n(-c2ccccc2)n1C
→ 10%	5%
Cc1nc(NC(=S)NC(=O)c2ccccc2)sc1C
→ -13%	-14%
COC(=O)C[C@@H]1C=C[C@@H](NC(=O)c2ccc3c(c2)OCO3)[C@@H](CO)O1
→ i	-14%
CN1C(C(=O)NCC2CC2)CC2Cn3c(nc4cc(Cl)c(Cl)cc43)C21 (configuration not stated)
→ -6%	-8%
Cc1cc(NC(=O)CN2C(=O)/C(=C/c3cccc(Br)c3)SC2=S)no1
→ i	8%
COc1ccc(-c2ccc(CN3C(CC(C)C)C(=O)N(Cc4cn(CCC5OCCCO5)nn4)CCS3(=O)=O)cc2)cc1OC (configuration not stated)
→ -15%	?
C(=C1C=c2ccccc2=C1)c1ccc(N=Nc2ccc(C=C3C=c4ccccc4=C3)cc2)cc1
→ 0%	-13%
CC(C)=CC(=O)OCC(=O)Nc1cccc([N+](=O)[O-])c1
→ i	-11%

Next section.
Value order – VACV mCherry inh	Vaccinia Venus
COc1ccc(-c2onc(C)c2C)cc1S(=O)(=O)NCC1CCN(Cc2cccc(F)c2)CC1
→ -26%	-28%
CNC(=O)c1ccc(NC(=O)COc2ccc(-c3nn(C)c(=O)c4ccccc34)cc2)cc1
→ -18%	0%
O=C(O)C1C2C=CC(C2)C1C(=O)Nc1nccs1 (configuration not stated)
→ -26%	-16%
O=C(Nc1ccc2c(c1)OCO2)C1CCN(Cc2cc3c(cc2O)OCO3)CC1
→ ?	?
Cc1cc(C)nc(SCCC(=O)N2CCOCC2)n1
→ nt	-10%
O=P(COCCOCP(=O)(c1ccccc1)c1ccccc1)(c1ccccc1)c1ccccc1
→ nt	-15%
COC(=O)c1sccc1NC(=O)Nc1cccc(OC)c1
→ ?	-28%
CC12CN3CC(C)(CN(C1)C3c1ccc(Br)cc1O)C2 (configuration not stated)
→ -15%	-12%
CCc1cc2ccccc2nc1Cl
→ -13%	9%
O=C(COC(=O)c1n[nH]c(=O)c2ccccc12)Nc1ccccc1F
→ -3%	-8%
Nc1nc(=S)c2ncn(C3OC(CO)CC3O)c2[nH]1 (configuration not stated)
→ -18%	-12%
CCOC(=O)c1c(NC(=O)CC2Nc3ccccc3NC2=O)sc(C)c1C (configuration not stated)
→ -4%	-5%
CNC(=O)N(O)C1N(/N=C/c2cccs2)C(=S)SC1(C)C (configuration not stated)
→ -19%	-8%
CCC(C)[C@H](NC(=O)NCc1ccco1)C(=O)OC (some centres not stated)
→ i	-13%
COc1cccc(-n2c(SCC(=O)Nc3nnc(C)s3)nc3c([nH]c4ccccc43)c2=O)c1
→ -6%	2%
C[C@H](N)C(=O)N1CCC(C(=O)N[C@@H](Cc2ccccc2)C(=O)Nc2ccc(F)cc2)CC1
→ -6%	-7%
COc1ccc(N(C(=O)Cn2nnc(-c3ccc(C)o3)n2)C(C(=O)NC2CCCC2)c2ccncc2)cc1 (configuration not stated)
→ i	-10%
